Screening results: PubChem BioAssay, National Center for Advancing Translational Sciences (NCATS)
ClpP mod = qHTS Assay for Activators of ClpP; ATP-dependent Clp protease proteolytic subunit (Bacillus subtilis (strain 168)), P80244; purified B. subtilis ClpP, FRET peptide cleavage, 20 min; Potency, µM (highest dose often 57.5 µM), for inactives: at the highest dose activity change, negative = active; actives 1.9% (n = 340,000); active = well fitted falling curve with a large enough effect; inconclusive = small, poorly fitted or top-dose-only effect; inactive = no such curve, though single readings can be large or run the other way; note: potency is the fitted concentration of half-maximal effect; the source files actives as falling curves though it sought activators and does not explain the sign; nearly all actives have a fitted effect of over 65% in size; many hits overshoot -100%
Target sequence (P80244 whole entry, looked up): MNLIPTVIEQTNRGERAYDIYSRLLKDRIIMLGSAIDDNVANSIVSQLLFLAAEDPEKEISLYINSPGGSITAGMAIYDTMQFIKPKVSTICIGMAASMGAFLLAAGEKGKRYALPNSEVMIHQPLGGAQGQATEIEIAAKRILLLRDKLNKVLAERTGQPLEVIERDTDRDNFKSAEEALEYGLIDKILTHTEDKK
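ClpP 10 microg/mL final, pH 8 Tris/KCl buffer with BSA, glycerol, Tween-20; compound pinned in; FRET-FV substrate; RT 20 min; Ex320/Em430; ΔFRET vs ADEP 5.8 microM, DMSO, no enzyme.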
Sfp PPTase inh = qHTS Assay for Inhibitors of Bacillus subtilis Sfp phosphopantetheinyl transferase (PPTase); 4'-phosphopantetheinyl transferase ffp (Bacillus subtilis), Q9F4F7; Biochemical Sfp PPTase activity, qHTS; Potency, µM, for the others: max response, negative = inhibition, most hits filed as inhibitors; actives 3.5% (n = 310,000); active = well fitted inhibition curve with a large enough effect; inconclusive = small, poorly fitted or top-dose-only effect, or another doubt; inactive = no such curve, though single readings can be large or run the other way;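 note: the enzyme is Sfp with the accession as filed and its product quenches rhodamine fluorescence; potency is the fitted concentration of half-maximal effect; 0% = enzyme reaction without inhibitor and -100% = no enzyme wells; top concentration of the series not given in the record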
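After 15 min at room temperature with compound, 15 nM Sfp received 5 uM rhodamine-CoA plus 12.5 uM BHQ-2-ybbR (50 mM Hepes pH 7.6, 10 mM MgCl2). Rate came from the fluorescence difference over 30 min, ex 525/em 598 nm.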
Menin-MLL FL inh = qHTS Assay for Inhibitors Targeting the Menin-MLL Interaction in MLL Related Leukemias: Competition With Fluorescein Labeled MLL-derived Peptide; Fluorescence polarization, fluorescein-MLL peptide displacement from menin; FP activity change, % at 61.4 µM; 290,000 tested, under 10 active; inconclusive = falling polarisation curve, or a change in total fluorescence; inactive = total fluorescence flat and polarisation flat or rising; no compound was filed as active; the % refers to the polarisation; negative = inhibition;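 note: % of control where 0% means no effect; inhibitors lower the polarisation; unlabelled MLL peptide was the positive control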
PINK1 expr mod = A Quantitative High throughput Screen to Identify Chemical Modulators of PINK1 Expression; PINK1 immunofluorescence, high-content cytometry, 24 h; Potency, µM (doses to about 76.6 µM), for inactives: at the highest dose activation (PINK1 increase), usual class: activators; actives 0.2% (n = 410,000); AID 624263, 2012; active = well fitted activation curve with a large enough effect; inconclusive = small, poorly fitted or top-dose-only effect; inactive = flat fitted curve, though single readings scatter; cell line not stated here;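 note: potency is the fitted concentration of half-maximal effect; % of control where 0% means no effect; nearly all actives have a fitted effect of over 65% in size; a mitochondrial uncoupler was the plate control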
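Readout is PINK1 immunofluorescence, quantified alongside mitochondrial, cell and nuclear markers by laser-scanning microplate cytometry. Cells from a stable line were exposed to compound titrations (5 concentrations) for 24 hours, with CCCP controls.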
D2 ag = Beta-Arrestin HTS for Positive Allosteric Modulators of the Human D2 Dopamine Receptor: Agonists; AID 624465, 2012; D(2) dopamine receptor (Homo sapiens), P14416; actives 0.084% (n = 360,000); DiscoveRx PathHunter D2 beta-arrestin, luminescence, 90 min; 100% = 57 uM dopamine signal; activation, % (concentration not given with the values); in the data active = activation above about 40%; inconclusive = about 15% to 40%; inactive = below about 15%; note: compound concentration not given in the record; the text of the record calls up to 30% inactive
Target sequence (P14416 whole entry, looked up): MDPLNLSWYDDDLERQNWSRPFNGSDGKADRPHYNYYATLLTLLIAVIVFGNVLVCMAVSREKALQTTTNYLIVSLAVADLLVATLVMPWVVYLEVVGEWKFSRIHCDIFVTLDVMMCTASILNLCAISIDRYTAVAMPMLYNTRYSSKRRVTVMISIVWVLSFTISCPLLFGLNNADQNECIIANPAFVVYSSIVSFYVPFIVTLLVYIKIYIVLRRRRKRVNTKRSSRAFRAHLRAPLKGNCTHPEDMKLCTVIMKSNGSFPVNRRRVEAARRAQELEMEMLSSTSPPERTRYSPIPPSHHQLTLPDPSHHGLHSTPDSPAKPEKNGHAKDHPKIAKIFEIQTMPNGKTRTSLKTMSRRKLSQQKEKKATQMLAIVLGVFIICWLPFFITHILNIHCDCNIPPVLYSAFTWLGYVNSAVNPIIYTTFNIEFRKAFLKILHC
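Agonist mode: compounds alone added to overnight-plated D2 PathHunter cells for 90 min at 37 C, with 57 uM final dopamine (EC100) defining full response. Beta-arrestin recruitment detected by chemiluminescent reagent, read after 1 h at ambient temperature.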
gsp antag = qHTS for Antagonists of gsp, the Etiologic Mutation Responsible for Fibrous Dysplasia/McCune-Albright Syndrome: qHTS; gsp-mutant cells, cAMP HTRF, 30 min; control for the full effect not named in the record; Potency, µM (titrated, usually from 76.9 µM), for inactives: top-dose activity change, negative = inhibition, most hits filed as inhibitors; actives 0.4% (n = 340,000); AID 624288, 2012; active = falling curve of any shape with a large fitted effect; inconclusive = falling curve, mostly with a smaller effect; inactive = flat or rising curve; cell line not stated here;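 note: intracellular cAMP measured with PDE inhibitor Ro 20-1724 present during compound exposure; potency is the fitted concentration of half-maximal effect; % is set by controls: 0 for no effect and ±100 for the full control effect; nearly all actives have a fitted effect of over 65% in size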
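Cells, 2000/well, grown 16–24 h in DMEM 10% FBS with 0.5 mg/ml G418, then compounds plus […] (300 uM addition stock), 30 min at 37C. cAMP read by HTRF (cAMP-d2 and anti-cAMP antibody-K in lysis buffer) after 30 min RT.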
gsp agonist = qHTS for Agonist of gsp, the Etiologic Mutation Responsible for Fibrous Dysplasia/McCune-Albright Syndrome: qHTS. Potency, µM (doses to about 76.9 µM), inactives show top-dose activation (cAMP increase), most hits filed as activators. actives 0.13% (n = 340,000). gsp mutant cells, cAMP HTRF, 30 min; control for the full effect not named in the record; active = well fitted activation curve with a large enough effect; inconclusive = small, poorly fitted or top-dose-only effect, or another doubt; inactive = no such curve, though single readings can be large or run the other way; cell line not stated here;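 note: phosphodiesterase inhibitor Ro 20-1724 added with compounds to block cAMP breakdown; potency is the fitted concentration of half-maximal effect; nearly all actives have a fitted effect of over 60% in size; about a fifth of the inactives were tested at one dose only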
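Cells in DMEM/10% FBS with G418 were pretreated with compounds in DMSO plus […] (300 uM stock) for 30 min at 37C. cAMP was measured by HTRF (cAMP-d2 plus anti-cAMP antibody-K) after 30 min at room temperature.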
Starred values were filed as active, the others as inactive; u = inconclusive; x = not tested or not shown; & = joins results of further samples; [ ] = remark or other dose.

SMILES	ClpP mod	Sfp PPTase inh	Menin-MLL FL inh	PINK1 expr mod	D2 ag	gsp antag	gsp agonist
CC(NC(=O)C(=O)NCCN1CCN(C(=O)c2ccccc2Br)CC1)c1ccccc1 (stereo unspecified)	x	13.4%	x	-1.2%	0.0	14.3%	-1.3%
C/C=C/C(=O)N1CC2(CC(c3cccc(NC(=O)CC(c4ccccc4)c4ccccc4)c3)=NO2)C[C@H]1C(N)=O (stereo partly specified)	0.5%	-11.2%	7.9	1.1%	0.3	-9.4%	x
CCC1=C(OC(=O)N(CC)CC)N2C(=O)OC(=NCCOC)[C@]2(Cc2ccccc2)[C@H]2C1=CC[C@H]1C(=O)NC(=O)[C@H]12	-2.0%	27.0%&13.4%	2.5&0.8	1.1%	1.1	8.0%	x
CN(Cc1ccc(Cl)cc1)C(=O)COC(=O)c1ccc(-c2ccc(O)cc2)cc1	2.8%	x	x	0.5%	1.3	15.0%	21.3%
COc1ccccc1N1CC(C(=O)NC2CCCCCC2)CC1=O (stereo unspecified)	x	x	x	-1.2%	-0.3	5.8%	-39.0%
CC(=O)c1ccc(NC(=O)COC(=O)c2ccccc2Nc2ccccc2)cc1	67.1%	16.9%	1.1	3.7%	0.3	9.7%	u
COCc1cc(=O)n2[nH]c(SC)nc2n1	-3.0%	13.2%	3.1	-1.8%	0.3	15.3%	-17.2%
O=C(NCc1cccc2ccsc12)c1cccs1	2.7%	x	x	-0.4%	0.5	9.0%	-19.3%
O=C(O)C1CC1(c1ccccc1)c1ccccc1 (stereo unspecified)	1.3%	8.6%	2.3	-1.1%	3.7	-7.8%	26.6%
CCOC(=O)N1CCN(Cc2nc3cc(NC(=O)c4ccco4)ccc3n2CC)CC1	-2.6%	14.8%	2.4	3.4%	-1.7	-4.6%	-1.2%[15.4 µM]
COC(=O)CNC(=O)CSc1nc2sccc2c(=O)n1-c1ccccc1	0.5%	5.2%	12.6	2.3%	0.5	-12.3%	14.9%[15.4 µM]
O=C(c1ccco1)c1cn(CC(=O)N2CCCC2)c2ccccc12	x	11.2%	4.4	-0.9%	-3.7	9.1%	-4.2%[15.4 µM]
O=C(OC1CCN(c2ncc(C(F)(F)F)cc2Cl)CC1)c1ccccc1	-1.3%	1.2%	-1.7	-1.1%	-1.3	4.1%	-26.2%
CCOC(=O)c1c(CN2CCN(c3ccccc3)CC2)oc2cc(Br)c(O)cc12	-1.3%	7.2%	-1.2	u	-4.5	-3.1%	2.7%
Cc1ccc(C(=O)N2CCN(S(=O)(=O)c3cc(Br)ccc3Br)CC2)o1	x	-3.3%	x	-0.9%	-2.9	-6.1%	-14.7%[15.4 µM]
CC1CN(C(NC(=O)c2ccccc2)C(Cl)(Cl)Cl)CC(C)O1 (stereo unspecified)	-11.9%	16.2%	-0.7	1.0%	-3.6	9.5%	15.1%
CC(=O)Nc1ccc(S(=O)(=O)N2CCC(NC(=O)C(Cc3ccc(C)cc3)NC(C)=O)CC2)cc1 (stereo unspecified)	x	18.5%	-1.9	0.4%	0.4	-14.2%	12.7%
CCOC(=O)c1c(/N=C/N(C)C)sc(C(=O)OC)c1C	-0.8%	-11.7%	-1.8	1.4%[38.3 µM]	-0.9	-1.3%	0.9%
O=C(CCCc1nc(-c2ccccc2Cl)no1)NC1CCCC1	0.6%	9.1%	0.2	-0.3%	0.5	1.0%	-30.9%[inhibitor]
N#C/C(=C\c1ccc(-c2ccccc2[N+](=O)[O-])o1)C(N)=O	-1.4%	u	u	13.6%	-2.6	1.9%	-0.4%
Cc1ccc(-c2noc(CSc3nnc(Cc4ccccc4)n3-c3ccc(Cl)cc3)n2)cc1	0.1%	u	4.2	6.1%[38.3 µM]	-1.9	u	-2.2%
CCc1cc2c(cc3c(=O)n(CC(=O)NCCCN(CC)CC)nc(CC)n32)s1	-19.3%	10.0%	-0.2	3.2%	-1.1	11.5%	6.4%
Cc1c(C(=O)/C=C/c2cccs2)oc2ccc(F)cc12	1.1%	-16.7%	3.4	4.7%	-7.6	-16.9%	-21.4%
Cc1c(CC(=O)N2CCN(C(=O)C3COc4ccccc4O3)CC2)c(=O)oc2c(C)c(O)ccc12 (stereo unspecified)	3.6%	3.2%	-0.5	1.7%	-8.8	-23.4%	u
CC(C)Cc1cc(C(=O)Nc2cc(Cl)ccc2Cl)no1	8.2%	-3.7%	-2.9	0.1%	-1.7	-1.3%	-36.9%[inhibitor]
Later entries:
SMILES	ClpP mod	Sfp PPTase inh	Menin-MLL FL inh	PINK1 expr mod	D2 ag	gsp antag	gsp agonist
COc1ccc(NC(=O)COC(=O)C2CC2)c(OC)c1	-0.9%	x	x	0.3%	-4.5	7.0%	19.4%
CCN(CC)CCCNC(=O)Cn1cnc2ccc(S(=O)(=O)N3CCC(C)CC3)cc2c1=O	x	14.9%	-7.0	-2.0%	-2.9	11.0%	25.2%[15.4 µM]
Cc1nnc(SCC(=O)N2CCN(C(=O)c3ccco3)CC2)n1-c1ccccc1	1.4%	1.7%	-4.7	-0.4%	-4.3	7.0%	-2.6%
O=C(Cc1ccc(F)cc1)Nc1cccc2cccnc12	-6.0%	12.7%	2.1	0.7%	-3.5	4.0%	3.1%
Cc1n[nH]c(=S)n1/N=C/c1ccc(-c2ccccc2[N+](=O)[O-])o1	-1.6%	8.91µM*	2.7	6.2%	-1.0	-5.3%	-22.4%
CCC1CCCCN1CCCNC(=O)C1CCCN(c2nn3c(=O)cc(C)nc3s2)C1 (stereo unspecified)	-10.4%	2.4%	x	-0.6%	-3.9	3.5%	10.7%
COc1ccccc1NC(=O)Nc1nc(C(N)CC(C)C)cs1 (stereo unspecified)	1.7%	x	x	13.3%	-0.8	x	x
C#CCOc1ccc(CNC[C@H]2O[C@@H](n3ccc(=O)[nH]c3=O)[C@H](O)[C@@H]2O)cc1	1.0%	x	x	1.5%	-5.9	x	x
O=C(CN1C(=O)NC(Cc2ccccc2)C1=O)Nc1ccc(F)c(Cl)c1 (stereo unspecified)	-1.5%	x	x	2.4%	4.6	10.0%	-13.6%
O=c1c2cc(Cl)ccc2oc2nc3n(c(=O)c12)CCCS3	17.2%	4.8%	-2.0	-3.3%	-4.3	-1.8%	-3.2%
CCCc1nc(N2CCOCC2)c(C#N)c2c1CCCC2	31.6µM*	17.2%	-0.1	-2.0%	0.9	-1.4%	-2.2%
C/C=C/C(=O)N[C@@H]1c2ccccc2CC[C@@H]1OCc1ccccc1	1.0%	x	x	-1.1%	-2.0	-3.0%	x
CCC(Oc1ccccc1OC)C(=O)Nc1ccc2c(c1)n(C)c(=O)n2C (stereo unspecified)	x	20.9%	3.6	-0.3%	-1.3	-9.8%	-8.8%
CCn1c(O)c(N=NC(=O)CNc2cccc(C)c2)c2ccccc21	x	-5.5%	3.5	-0.2%	-0.9	-0.4%	-11.7%
CCOCCCn1c(=S)[nH]c2cc(C(=O)NCCN(CC)CC)ccc2c1=O	-7.2%	5.4%	0.5	7.3%[38.3 µM]	8.5	-2.4%	-2.0%
COc1ccc(N2CCN(C(=O)CCS(=O)(=O)c3ccc(OC)cc3)CC2)cc1	-1.5%	7.2%	-3.4	-0.1%	0.3	-9.3%	-138.4%[inhibitor]
CC(=O)Nc1cc2c(c(Cl)c1Cl)-c1ccccc1C2=O	-2.7%	x	x	0.3%	-5.1	0.2%	-3.8%[15.4 µM]
O=C(c1ccccc1)N1CCN(CC(O)COC2CCCCC2)CC1 (stereo unspecified)	0.7%	10.4%	-0.9	1.1%	-1.9	-6.4%	-13.8%
CC1CCN(c2ncnc3c2cnn3-c2ccccc2)CC1	-3.5%	-11.7%	-5.0	1.1%	-1.2	4.0%	-44.1%[inhibitor]
Cc1cc(OCC(=O)OC(C)C(=O)NC2CC2)c(C(C)C)cc1Cl (stereo unspecified)	0.0%	x	x	2.1%	-1.0	x	u
CC(C)(C)c1cc(Cl)c(O)c(NC(=S)NC(=O)c2cccnc2)c1	0.7%	-24.1%	3.9	12.5%	-7.2	10.5%	12.3%
CSc1nc(C)c(Oc2ccccc2)c(=O)n1C	-0.3%	5.5%	0.4	-0.5%	-0.9	-6.2%	-39.1%[inhibitor]
Cc1ccc(C(=O)N(CCN(C)C)CC2CCCN(Cc3ccccc3F)C2)cc1C (stereo unspecified)	-24.8%	11.3%	-0.5	-2.2%	-4.7	4.8%	-3.7%[15.4 µM]
Cc1ccc(C(=O)COC(=O)c2cccc(O)c2)s1	-2.1%	x	x	-5.3%	-3.4	0.8%	-0.4%
COc1cc(C(=O)Nc2nc3ccccc3[nH]2)ccc1OC(F)F	x	16.5%	1.8	10.9%	-2.6	-32.6%	12.2%
The list continues:
SMILES	ClpP mod	Sfp PPTase inh	Menin-MLL FL inh	PINK1 expr mod	D2 ag	gsp antag	gsp agonist
O=C(Nc1n[nH]c(=S)s1)c1ccc2ccccc2c1	3.5%	u	x	0.6%	10.5	7.7%	-0.3%
COc1ccccc1CC(=O)Nc1cc2oc3ccccc3c2cc1OC	31.6µM*	u	4.1	7.2%[38.3 µM]	1.6	-21.5%	6.4%
COc1ccc(OC)c(NC(=O)C2CCCN(S(=O)(=O)c3cccc4cccnc34)C2)c1 (stereo unspecified)	-1.0%	8.7%	4.9	2.2%	0.4	u	0.7%
COC(=O)c1cn(NC(=O)CC2CCCCC2)c(=O)c2ccccc12	-5.2%	-3.4%	1.5	-0.1%	-3.4	-11.4%	-11.5%
O=C/C=C/c1ccc(O)cc1	x	9.1%	6.9	0.1%	x	x	x
CNC(=O)N1c2ccccc2NC(=O)CC1C (stereo unspecified)	x	9.0%	-2.3	-0.3%	-2.6	11.5%	-10.1%[15.4 µM]
CS(=O)(=O)c1ccc(C(=O)NC2CCCCC2)cc1	-2.0%	16.2%	-4.4	1.4%	-1.9	4.3%	3.1%[15.4 µM]
